Compound activity (PubChem)
Vif A3G: HIV-1 Vif–A3G interaction blockers – biochemical, TR-FRET, GST-Vif 1-94, biotin-A3G peptide, dose response retest, primary screen (AID 1117319); 260,000 tested, 0.57% active; inhibition, %; hits with a dose series show IC50 in µM; TR-FRET GST-Vif / biotin-A3G peptide binding; higher % means a stronger effect; test concentration not given here; strong numbers were not always called active;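 active = above the screen mean plus three standard deviations and confirmed in dose response; inconclusive = results disagree or hit not tested in dose response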;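 note: Vif residues 1-94 fused to GST binding biotinylated APOBEC3G peptide 110-148; 0% = full assay without inhibitor and 100% = GST in place of GST-Vif; retest series ran down from 100 µM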
RanGTP-Imp inh: inhibitors of RanGTP-importin-beta interaction, primary screen, biochemical, FRET, CFP-Ran, YFP-importin-beta, homogeneous; cell-free CFP-Ran/YFP-importin-beta FRET ratio; inhibition, % (no concentration beside the values); 300,000 tested, 1.1% active;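 active = most replicates above 15%; inconclusive = exactly half above 15%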;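 note: 0% = DMSO wells and 100% = Ran loaded with GDP instead of GTP; wells of about 40 µL received 100 nL stock; the first replicate is given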
A1 inh: inhibitors of the anti-apoptotic protein A1, read as caspase activation; MEF A1-2A-BIM cells, Caspase-Glo 3/7 luminescence, 3 h; percent of clofoctol response, vehicle zero; caspase activation, % (test concentration not listed); 330,000 tested, 0.066% active;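 active = over half of replicate activation scores above 10%, or exactly half above 10 with the replicate mean above 10; inconclusive = replicate mean below 10 yet half the replicates above 10; inactive = over half of replicates below 10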;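 note: wells of about 30 µL received 50 nL stock; many hits fall short of the cut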
Calb FLC: C. albicans growth modulation with fluconazole; C. albicans CaCi-2 (fluconazole-resistant clinical isolate) + fluconazole, Alamar Blue growth, 48 h; growth inhibition, % (no concentration beside the values); 300,000 tested, 0.57% active;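 active = most replicates above 75%; inconclusive = exactly half above 75%; inactive = most below 75%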;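 note: all wells also contain fluconazole at 8 µg/ml as a sub-toxic cotreatment; 0% = median of DMSO wells and 100% = median of geldanamycin control wells; wells of about 8 µL received 7.5 nL stock; the first replicate is given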
T cruzi repl: blocks replication of Trypanosoma cruzi | T. cruzi beta-gal in NIH3T3, luminescence, 90 h | inhibition, % (no concentration beside the values) | 300,000 tested, 1.4% active | AID 1885;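 active = mean inhibition across valid replicates above about 55%, limit read from the data; inconclusive = mean below that limit but half or more replicates reach it; inactive = mean below it, under half of replicates reach it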;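 note: signal also drops with host cell toxicity which is not excluded here; 0% = plate median of DMSO wells and 100% = zero luminescence signal; higher percent means less beta-gal luminescence so fewer parasites; stock transfer was 50 nL into about 50 µL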
Ecoli rRNA inh: selective bacterial rRNA inhibition in E. coli. E. coli WT GFP vs humanized-ribosome RFP mutants, fluorescence, 24 h; active compounds read low; DMSO median 0, no signal -100. GFP signal change (wild-type ribosome), % (test concentration not listed). 350,000 tested, 1.6% active. AID 720706;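 active = significant combined selectivity score with lowered wild-type GFP, culture density cut under 30%, mutant RFP and density less affected; inactive = any of these conditions unmet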; note: one replicate is shown; some compounds called inactive have numbers as strong as hits
Beta cell apopt: beta cell apoptosis inhibition. INS-1E cytokine-induced death, ATP luminescence, 48 h; percent of positive-control rescue, neutral wells zero. protection from apoptosis, % (concentration not given with the values). 300,000 tested, 0.8% active. AID 435005;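 active = all replicates at 75% or more, or half of them and the mean; inconclusive = half reach 75% but not the mean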;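 note: 0% = cytokine-treated negative control wells and 100% = positive control rescue; higher means more ATP so stronger rescue from cytokine killing; wells of about 40 µL received 100 nL stock; the first replicate is given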
AF4-AF9 inh: inhibitors of human MLL-AF4/AF9 interaction; 350,000 tested, 0.47% active; inhibition, % at 10 µM; AlphaScreen, biotin-AF4 peptide binding to FLAG-AF9;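 active = every replicate reaching a set inhibition limit, whatever the replicate mean, cut at about 25% in these data; inconclusive = mean inhibition reaches that limit but some replicates miss it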;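 note: 0% = plate neutral control median and 100% = total signal loss; the record names both 10 and 1 µM as test concentration; the first replicate is given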
Target sequence (P42568 whole entry, looked up): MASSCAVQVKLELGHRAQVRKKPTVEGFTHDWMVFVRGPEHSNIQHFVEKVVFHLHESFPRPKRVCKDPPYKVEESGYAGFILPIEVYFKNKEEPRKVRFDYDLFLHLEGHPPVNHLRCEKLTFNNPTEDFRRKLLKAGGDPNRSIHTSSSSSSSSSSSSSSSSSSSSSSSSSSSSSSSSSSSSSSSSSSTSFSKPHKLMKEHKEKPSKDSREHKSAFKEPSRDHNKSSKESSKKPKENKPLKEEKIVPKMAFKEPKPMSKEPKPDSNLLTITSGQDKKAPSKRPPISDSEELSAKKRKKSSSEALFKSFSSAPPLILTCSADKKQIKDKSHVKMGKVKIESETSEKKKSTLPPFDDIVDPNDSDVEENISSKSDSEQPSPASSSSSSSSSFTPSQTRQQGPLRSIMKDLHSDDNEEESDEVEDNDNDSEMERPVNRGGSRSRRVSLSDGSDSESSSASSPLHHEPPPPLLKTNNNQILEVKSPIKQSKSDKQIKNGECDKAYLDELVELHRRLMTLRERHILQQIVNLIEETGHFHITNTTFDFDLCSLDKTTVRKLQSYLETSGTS
Ecoli rRNA inh OD600: also measured in Ecoli rRNA inh; calls as there; OD600 change, %; measured here: OD600 growth;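 optical density of the mix in the first replicate; 0 = DMSO median and -100 = no signal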
Ecoli rRNA inh RFP: also measured in Ecoli rRNA inh; calls as there; RFP signal change, %; measured here: RFP humanized mutant strains;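 first replicate; 0 = DMSO median and -100 = no signal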
Active calls of the source: *; ? = inconclusive; . = no result given. An excerpt; the hit share may differ from the screen's.

SMILES	Vif A3G	RanGTP-Imp inh	A1 inh	Calb FLC	T cruzi repl	Ecoli rRNA inh	Ecoli rRNA inh OD600	Ecoli rRNA inh RFP	Beta cell apopt	AF4-AF9 inh
CCOc1ccc(-n2c(-c3cccs3)nc3ccccc3c2=O)cc1	.	-0.3	0.4	2	28	18	13	2.2	5	3.3
CCCCCCOc1ccc(CN2CCN(C)CC2)cc1	0%	3.2	0.7	21	68*	-25*	-16*	-0.9*	109*	4.4
CNC(=O)Oc1cccc(-c2cn3cc(OC(=O)NC)ccc3n2)c1	?	.	-6.0	.	.	8	-11	46	-2	0.5
CC1CC(C)CN(C(=O)COC(=O)c2cn(C)c3ccccc23)C1 (stereo not drawn)	12%	.	0.4	.	.	-8	-25	-3.1	-4	-9.6
CCCCCCCCN=Cc1c(O)[nH]c(=O)[nH]c1=O	13%	-0.3	-0.3	5	-9	19	11	0.7	-1	-0.1
CCOc1cc2c(cc1OCC)-n1cccc1C(c1cccc(OCC)c1O)NC2 (stereo not drawn)	-7%	-0.9	-0.3	-11	-2	-12	-20	-2.9	.	20
CC(=O)N1N=C(c2cccnc2)OC1c1ccccc1Cl (stereo not drawn)	-8%	0.0	0.6	0	-8	9	6	1.3	-4	0.1
COc1ccc(NC(=O)c2cn(CCC#N)nc2-c2cccc(Br)c2)cc1	.	-0.3	0.4	2	11	3	7	-0.1	-4	-10
O=C(Nc1ccc(Cl)cc1C(=O)c1ccccc1Cl)c1ccco1	-5%	-0.1	-0.2	39	-6	.	.	.	3	.
CC1CN=C(Nc2cccc3ccccc23)S1 (stereo not drawn)	12%	-1.5	0.3	-8	0	.	.	.	-7	.
Cc1ccsc1C(=O)C1CCCN(Cc2cccc(OCCO)c2)C1 (stereo not drawn)	?	?	-1.9	-20	21	6	11	-1.9	-9	-3.3
COC(=O)C1=C(c2ccc(F)cc2F)C[C@@H]2CC[C@H]1N2C(=O)N1CCC(C)CC1	.	.	1.2	.	.	-43	-60	-3.3	-11	4.5
CCOc1ccc(NC(=O)c2c(C)nn(Cc3ccccc3)c2Cl)cc1	-2%	3.2	0.1	7	-13	.	.	.	-7	.
COc1cccc(-n2c(-c3ccoc3)nc3ccccc3c2=O)c1	0%	2.7	1.3	16	7	.	.	.	-5	.
Clc1ccc(Cn2ccnc2)cn1	.	1.4	0.4	8	2	-5	6	-3.7	-1	-0.3
Cc1cccc(OCC(=O)N2CCN(Cc3cccnc3)CC2)c1	-1%	1.2	0.0	-2	0	-1	-13	-4.0	-1	-1.0
CC(=O)Nc1ccc(OC(=O)N(C)C)cc1	-1%	4.8	-0.2	-19	-6	.	.	.	-2	.
CN(C)C1(CNC(=O)Cc2ccccc2F)CCCCC1	-7%	0.9	0.1	-3	2	9	7	0.1	-2	-0.6
COc1ccc(N2C(=O)/C(=C/C=C/c3ccccc3[N+](=O)[O-])C(=O)NC2=S)cc1	27%	-1.9	.	13	-11	6	10	3.7	.	-1.3
CN1CCN(c2cn[nH]c(=O)c2Cl)CC1	1%	-3.6	0.3	-22	2	15	15	-0.5	-1	-2.5

Overlap with the part before: 2 entries, followed by the next part.
SMILES	Vif A3G	RanGTP-Imp inh	A1 inh	Calb FLC	T cruzi repl	Ecoli rRNA inh	Ecoli rRNA inh OD600	Ecoli rRNA inh RFP	Beta cell apopt	AF4-AF9 inh
COc1ccc(N2C(=O)/C(=C/C=C/c3ccccc3[N+](=O)[O-])C(=O)NC2=S)cc1	27%	-1.9	.	13	-11	6	10	3.7	.	-1.3
CN1CCN(c2cn[nH]c(=O)c2Cl)CC1	1%	-3.6	0.3	-22	2	15	15	-0.5	-1	-2.5
COC(=O)C(O)(c1ccc(N(C)C(=O)OC(C)C)cc1)C(F)(F)F (stereo not drawn)	3%	-1.6	0.1	8	11	2	0	0.3	3	-3.3
CN(C)c1ccc(/C=C2/C(=O)NC(=O)N(CCc3ccc(F)cc3)C2=O)cc1	5%	.	?	2	-21	17	4	8.6	-3	-1.7
Cn1cccc1/C=C1/C(=O)NC(=O)N(C(C)(C)C)C1=O	21%	2.5	-0.2	0	5	1	16	-6.1	-1	7.4
COc1cc(NC(=O)CN2C3CCC2CC(O)(c2cccnc2)C3)cc(OC)c1 (stereo not drawn)	-4%	?	-0.6	21	2	.	.	.	-6	.
Oc1ccc(Br)cc1CN1CCN(c2ccccc2)CC1	21%	.	1.4	3	-12	.	.	.	-6	.
COc1cccc(C(=O)C2CCCN(Cc3ccon3)C2)c1 (stereo not drawn)	.	.	0.3	3	12	5	-16	-2.9	11	0.8
COC(=O)C1=C(c2ccc(S(C)(=O)=O)cc2)C[C@@H]2CC[C@H]1N2C(=O)N1CCCCC1	.	0.6	-0.5	-2	-13	4	6	-1.2	-5	-3.2
CCOC(=O)N(CC)c1ccc(C(O)(C(=O)OCC)C(F)(F)F)cc1 (stereo not drawn)	-3%	2.6	0.4	3	10	.	.	.	2	.
O=C(Cc1ccccc1)Oc1cccc(-n2cnnn2)c1	12%	?	0.4	-18	-26	6	1	-0.3	-1	-4.6
COc1cccc(-c2nn(Cc3ccccc3)cc2C(=O)O)c1	.	?	0.9	17	-6	8	3	-1.5	-1	-4.4
COP(=O)(OC)C(NC(=O)/C=C/c1ccccc1)C(Cl)(Cl)Cl (stereo not drawn)	0%	5.7	-0.7	-13	-26	-10	-12	-5.4	-4	0.3
CCCN(CC#CCOc1ccc(OC)cc1)CCC	?	-1.0	0.1	-8	5	.	.	.	-5	.
Cc1c(C(c2ccc(O)cc2)c2c(O)c3ccccc3oc2=O)c(=O)n(-c2ccccc2)n1C (stereo not drawn)	3%	?	0.6	5	-7	-14*	5.5*	4.6*	-6	-5.2
Cc1ccsc1C(=O)C1CCCN(Cc2cnc(N)nc2)C1 (stereo not drawn)	.	0.4	0.4	15	9	9	-2	-2.2	-8	-4.6
Cc1ccc(-n2c(O)c(C=NCC3CCCO3)c(=O)[nH]c2=O)c(C)c1 (stereo not drawn)	-2%	-1.2	0.9	-9	-10	24	14	4.2	3	0.4
C[C@]12CC[C@H](N)CC1=CCC1C2CC[C@@]2(C)C1CC[C@@H]2O (stereo partly drawn)	-3%	.	1.4	.	.	-8	5	7.6	-10	2.1
CC(C)CNP(=S)(c1ccccc1)C(C)(C)C (stereo not drawn)	-1%	-0.7	0.2	-1	-4	7	2	5.6	-2	-9.3
O=c1[nH]c(=O)n(Cc2ccco2)c(O)c1C=NCCN1CCOCC1	8%	-0.8	-0.9	-2	-4	3	4	-1.1	-3	.
Cc1c(N)c(C)c([N+](=O)[O-])c(C)c1[N+](=O)[O-]	.	7.3	1.5	27	-17	-29	-34	-9.8	-12	3.1
Cc1nn(Cc2ccccc2Cl)c(C)c1C(=O)OCC(=O)N1CC(C)OC(C)C1 (stereo not drawn)	14%	-0.4	-0.2	-3	-8	.	.	.	-3	.
CN(CC(=O)Nc1ccccc1-c1ccccc1)C1CCCCC1	-5%	-1.7	1.0	-1	15	.	.	.	-2	.
Cc1c(C=O)c2ccccc2n1Cc1cccc(F)c1	1%	0.8	0.3	8	-3	.	.	.	.	.
CN(C)C(=O)Oc1ccc(Cl)c2cccnc12	.	2.2	-0.2	-3	-7	9	1	3.3	0	-1.4
CCC(=O)N1CC(=O)Nc2ccc(F)cc2C1c1ccc(F)cc1 (stereo not drawn)	3%	-4.1	-1.5	-13	-3	0	4	-2.1	-11	0.1
O=C1N(c2cccc(Cl)c2)C(c2cccnc2)N2CCCN12 (stereo not drawn)	-4%	-0.1	-0.4	-5	8	-6	-4	-0.8	0	1.9
OC1/C(=C/c2ccc(F)cc2)N2CCC1CC2 (stereo not drawn)	-15%	-1.3	-0.9	-4	3	.	.	.	1	-1.2
C[C@H](NC(=O)N1C[C@H]2C[C@@H](C1)c1cccc(=O)n1C2)C(=O)Nc1ccccc1F	.	0.8	1.1	-7	-15	.	.	.	0	-0.1
CN1CCN(c2ccc(F)cc2N)CC1	.	-1.9	1.4	9	8	8	2	-1.5	.	-14
NNC(=O)c1ccc(O)cc1	.	.	-0.4	.	.	11	12	1.4	-4	0.9
CC(=O)Nc1ccccc1OP1(=O)COc2ccccc2OC1	3%	3.5	0.5	-2	-12	18	12	-1.9	-4	.
CS(=O)(=O)N1CCCC(C(=O)N2CCC3(CC2)OCCO3)C1 (stereo not drawn)	0%	-1.0	0.4	2	-12	14	17	18	-1	5.7
O=C(C1CC(=O)N(C2CCCCCCC2)C1)N1CCC2(CC1)OCCO2 (stereo not drawn)	8%	5.2	-0.2	-2	-19	.	.	.	-4	.
Cc1nn(CC(=O)N2CCC3(CC2)OCCO3)c(=O)c2cc3ccccc3n12	-4%	0.7	2.5	5	-1	2	15	5.1	2	-1.6
C/C(=N\NC(=O)c1ccncc1)c1c(O)[nH]c(=O)[nH]c1=O	.	5.4	-1.7	0	-2	6	18	9.1	-3	.
Cc1cc(Cl)ccc1OCCCC(=O)NCc1cccs1	.	?	0.9	-10	18	.	.	.	-9	.
O=C(O)c1ccc(-n2c(O)c(/C=C3\C=Nc4ccccc43)c(=O)[nH]c2=O)cc1	8%	-1.3	1.0	3	-12	12	9	1.9	-3	4.2
CCc1c(C)nc(N)nc1N1N=C1SCC(N)=O	26%	?	0.4	-1	-5	.	.	.	-4	.
COc1ccc(C(=O)C2CCCN(Cc3ccon3)C2)cc1OC (stereo not drawn)	1%	3.3	-0.2	11	6	3	9	-0.4	-11	-10
Cc1cc(NCCN)nc2ccccc12	7%	-1.6	-0.5	5	18	.	.	.	-10	.
Cc1ccccc1C(=O)NC(Oc1ccccc1)C(Cl)(Cl)Cl (stereo not drawn)	16%	-1.7	0.5	1	-16	.	.	.	-7	.
NCCc1c[nH]c2ccccc12	1.7µM*	.	0.9	.	.	.	.	.	-8	1.5
COC(=O)c1ccc(COc2cc(C)cc3oc(=O)c4c(c23)CCCC4)o1	5%	1.9	-0.1	8	48	.	.	.	-6	.
CN1C(=O)/C(=C\N2CCc3ccccc32)C(=O)NC1=S	.	-3.3	1.7	-1	-5	.	.	.	6	.
CN(C)C(CNC(=O)Cc1ccc(Br)cc1)c1ccccc1 (stereo not drawn)	.	-1.4	1.6	-14	4	10	15	-0.8	-12	-0.9
O=C1CC(c2ccccc2)CC(O)=C1C=NCCN1CCN(C(=O)Cc2ccccc2)CC1 (stereo not drawn)	1%	4.2	0.7	1	-4	.	.	.	1	.
CC1CCC(NC(=O)CNC(=S)N2CC3CC(C2)c2cccc(=O)n2C3)CC1 (stereo not drawn)	.	-2.3	1.2	10	-3	14	7	0.9	-9	-1.2
CC1CCCCC1NC(=O)CNC(=S)N1CC2CC(C1)c1cccc(=O)n1C2 (stereo not drawn)	.	-1.3	2.5	18	-3	20	8	2.3	-14	2.4
